High-throughput results as filed in PubChem BioAssay.
Mtb growth = M. tuberculosis H37Rv growth inhibitors, H37Rv strain (AID 1626) | M. tuberculosis H37Rv growth inhibition; higher % means a stronger effect | inhibition, % at 10 µM, or IC50 in µM where a hit was titrated | 0.95% of 220,000 active;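 active means confirmed in a dose series; inconclusive means inhibition above 80% but not taken into the dose series; inactive means below 80% or under 30% at every dose of the series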;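 further: bacteria incubated seven days before Alamar blue readout; 0% = bacteria only wells and 100% = bacteria with antibiotic wells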
Mtb betalactam = beta-lactam sensitization of Mtb H37Rv; AID 434955; 0.27% of 330,000 active; M. tuberculosis H37Rv growth with meropenem, percent inhibition; hits of this screen are not shown here; inhibition, % at 25 µM;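 active means about 74% or more and at least 40 points above the plate without the antibiotic, then above 30% in a dose series; inconclusive means first-round hits that could not be retested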;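 further: growth measured after seven days incubation then overnight dye step; 0% = bacteria only wells and 100% = bacteria with antibiotic; twin plates without the antibiotic show which effects depend on it; some results filed as inactive read as strong as hits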
YopH PTP inh = blocks Yersinia enterocolitica YopH tyrosine phosphatase | fluorescence Ex485/Em525 | inhibition, %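 (about 10 µM by stock and volumes)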 | 0.16% of 140,000 active | AID 898;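 active means inhibition of 50% or more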;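 further: controls were vehicle for no effect and minimum signal wells for full effect; inactives centre near -20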
RecA intein inh = inhibitors of M. tuberculosis RecA intein splicing; cell-free RecA intein splicing, fluorescence; inhibition, %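 (about 9 µM by stock and volumes)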; 0.75% of 290,000 active; AID 2221; in the data active means inhibition above about 30%; inconclusive means no clear call, values can overlap the other calls;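 further: 0% = vehicle wells and 100% = reference inhibitor control wells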
Target sequence (P9WHJ3 whole entry, looked up): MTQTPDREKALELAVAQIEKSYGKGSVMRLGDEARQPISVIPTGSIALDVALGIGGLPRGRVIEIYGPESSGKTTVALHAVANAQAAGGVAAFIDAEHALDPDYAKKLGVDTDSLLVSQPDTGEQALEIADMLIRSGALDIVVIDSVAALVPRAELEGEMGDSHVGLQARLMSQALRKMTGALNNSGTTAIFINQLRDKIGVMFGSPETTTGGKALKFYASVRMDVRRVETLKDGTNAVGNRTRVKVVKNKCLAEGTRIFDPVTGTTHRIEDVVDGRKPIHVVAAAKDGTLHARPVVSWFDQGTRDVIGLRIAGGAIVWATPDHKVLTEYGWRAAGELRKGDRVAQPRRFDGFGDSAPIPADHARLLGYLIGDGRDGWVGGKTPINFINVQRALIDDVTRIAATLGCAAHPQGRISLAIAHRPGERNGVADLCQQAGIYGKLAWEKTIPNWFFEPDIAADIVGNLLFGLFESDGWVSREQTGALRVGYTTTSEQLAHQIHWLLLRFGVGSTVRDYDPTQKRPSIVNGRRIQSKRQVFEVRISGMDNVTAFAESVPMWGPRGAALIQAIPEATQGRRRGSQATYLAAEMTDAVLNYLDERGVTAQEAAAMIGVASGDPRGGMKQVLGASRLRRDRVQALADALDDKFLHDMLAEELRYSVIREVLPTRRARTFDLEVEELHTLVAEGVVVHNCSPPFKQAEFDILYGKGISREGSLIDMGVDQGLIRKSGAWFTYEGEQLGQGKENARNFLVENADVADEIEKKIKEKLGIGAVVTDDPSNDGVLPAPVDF
Arbovirus inh = blocks arbovirus infection; arbovirus infection cell-based antiviral screen; inhibition, % at 10 µM; 0.37% of 200,000 active; AID 1251;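 active means inhibition from about 30%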;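 further: bluetongue infection of BSR cells; cell survival read as ATP light after 72 h; 0% = infected wells without compound and 100% = uninfected wells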
Arbovirus inh repeat = further read-out of Arbovirus inh, marked with its call; inhibition, %; measured here: 10K subset replicate screen; many hits read low in the repeat;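 first of two repeat runs on a subset; 0% = infected and 100% = uninfected wells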
The depositor's hits bear a star; ? = inconclusive; · = not tested or not shown. Some of the compounds tested, so the mix of outcomes need not match the whole.

SMILES	Mtb growth	Mtb betalactam	YopH PTP inh	RecA intein inh	Arbovirus inh	others
CCOC(=O)c1ccc(NC(=O)C2CC2)cc1	29µM*	?	-41	-1.1	3
COc1ccccc1NS(=O)(=O)c1cc(NC(=O)C(C)C)ccc1N1CCCCC1	4%	0	·	3.2	9
c1ccc(-c2ccccn2)nc1	-12%	0	-56	2.9	10
CCOc1nc2ccccc2nc1C	-3%	-4	23	3.8	-3
Cc1c(C)n(C)c2ccc(C(=O)NCCN3CCOCC3)cc12	·	3	·	-1.9	·
Cc1ccc(S(=O)(=O)N2CCN(S(=O)(=O)N3CCCCC3)CC2)cc1C	·	0	·	-0.4	·
COc1ccc(-c2cc(=O)oc3cc(OCC(=O)N(C)C)ccc23)cc1	·	-7	·	-2.0	·
CC(C)(C)c1cc(CCC(=O)NCc2ccncc2)cc(C(C)(C)C)c1O	·	16	·	17	·
Cc1ccc(S(=O)(=O)N2CCC(=O)N(C(COCc3cccc(Cl)c3)C(C)C)CC2)cc1 (stereo not drawn)	5%	5	-18	2.2	-2
CC1=C(C(=O)Nc2cc(C)ccc2C)C(c2cccs2)NC(=S)N1 (stereo not drawn)	-2%	-5	-52	-0.2	8
COc1cc(/C=N/NC(=O)c2cc(-c3cccc(OC(C)C)c3)nc3ccccc23)ccc1O	·	-7	·	2.1	·
CCOC(=O)C(C(=O)OCC)C(Nc1cccc(Br)c1)c1ccccc1 (stereo not drawn)	-4%	7	-31	·	-18
S=c1nccc(-c2cccs2)[nH]1	1%	45	·	·	-1
O=C(N/N=C/C(Cl)=C\c1ccccc1)c1ccco1	-6%	-3	·	2.2	·
CCOc1ccc(NC(=O)CN(C)C(=O)c2ccccc2OCc2c(C)noc2C)cc1OCC	·	-3	·	0.4	·
CCn1c(COc2ccccc2)nnc1SCC(=O)CC(=O)Nc1ccccc1OC	-4%	-4	-30	3.1	-14
O=C(COC(=O)c1cncc(Br)c1)Nc1nnc(-c2ccccc2)o1	·	17	·	1.0	·
CN(c1ncc(C(F)(F)F)cc1Cl)N1C(=O)C2ONC3(C(=O)CC(C)(C)CC3=O)C2C1=O (stereo not drawn)	-2%	-1	·	-0.9	12
COc1cccc(CCc2nnc(CCC(=O)NC(C)c3c(C)nn(C)c3C)o2)c1 (stereo not drawn)	-3%	1	·	-1.2	13
CCn1cc(C(=O)N2CCN(C3CCCCC3)CC2)c2cc(OC)c(OC)cc2c1=O	3%	6	0	8.0	1

Continued (3 carried over from the part before).
SMILES	Mtb growth	Mtb betalactam	YopH PTP inh	RecA intein inh	Arbovirus inh	others
CN(c1ncc(C(F)(F)F)cc1Cl)N1C(=O)C2ONC3(C(=O)CC(C)(C)CC3=O)C2C1=O (stereo not drawn)	-2%	-1	·	-0.9	12
COc1cccc(CCc2nnc(CCC(=O)NC(C)c3c(C)nn(C)c3C)o2)c1 (stereo not drawn)	-3%	1	·	-1.2	13
CCn1cc(C(=O)N2CCN(C3CCCCC3)CC2)c2cc(OC)c(OC)cc2c1=O	3%	6	0	8.0	1
Cc1nsc(Nc2ccc([N+](=O)[O-])cc2)c1C#N	-4%	-2	·	-1.2	-6
CC12c3ccccc3C(c3ccccc31)C1C(=O)N(c3ccncc3)C(=O)C12 (stereo not drawn)	-1%	-7	·	4.3	1
COC(=O)c1[nH]c2cc(OC)ccc2c1NC(=O)CCN1CCSCC1	-3%	-7	-136	0.0	0
CCOC(=O)c1c(NC(=O)CSc2nnc(CNC(=O)c3ccco3)n2C)sc2c1CCC2	-8%	25	-49	4.6	-1
Cc1ccc(-c2csc(N3CCC(C(N)=O)(N4CCCCC4)CC3)n2)cc1	7%	1	-48	-3.5	9	Arbovirus inh repeat=4
Cc1ccc(N(C(=O)c2snc(C(N)=O)c2N)C(C(=O)NCC2CCCO2)c2c[nH]c3ccccc23)cc1 (stereo not drawn)	·	0	·	-1.3	·
Cn1c(SCCCC(=O)c2ccc(F)cc2)nnc1-c1ccncc1	5%	-6	-21	-2.8	-2
CCO[C@H]1OC(C(=O)N2CCN(Cc3ccc4c(c3)OCO4)CC2)=C[C@@H](C)[C@@H]1CCCO	-19%	7	·	-0.2	2
COc1ccccc1CNC(=O)C1CC(c2cccc([N+](=O)[O-])c2)=NO1 (stereo not drawn)	2%	-10	-15	0.4	-12
O=C(Nc1ccccc1F)Nc1cc(S(=O)(=O)N2CCOCC2)ccc1N1CCCC1	-5%	-2	·	0.1	-3
CN(C)CCNC(=O)/C(=C/c1ccc(-c2ccc(Cl)cc2Cl)o1)NC(=O)c1ccccc1	11µM*	100	-32	4.9	-35
CCOC(=O)c1nnn(CC(=O)NC(=O)Nc2ccc(F)cc2)c1C(=O)OCC	-2%	1	·	-7.7	5
COc1cccc(-c2cc(C(=O)N3CCCc4ccccc43)no2)c1	7%	56	-22	15	-1
Cc1ccc(C)c(N2CCN(C(=O)c3ccc4c(=O)n5c(nc4c3)CCCCC5)CC2)c1	·	13	·	6.2	·
FC(F)(F)c1cccc(-n2nnnc2C2(N3CCOCC3)CCCCC2)c1	7%	1	-12	3.2	-4
Cc1cc(NC(=O)c2ccc(C)c(C)c2)no1	·	6	·	-1.2	·
Cc1occc1C(=O)Nc1cccc(C(=O)O)c1	-1%	2	-6	1.4	-12
Nc1cccc(N=Cc2c(O)n(Cc3ccc(F)cc3)c(=O)[nH]c2=O)c1	5%	4	-13	-3.4	-6
Cc1cc(/C=N/NC(=O)c2cccs2)c(C)n1-c1ccccc1	-8%	7	-20	1.7	-3
CC1(C)Oc2ccc3ccc(=O)oc3c2/C(=C/O)C1=O	·	1	·	-0.1	·

Among those listed so far, these contain a thiophene ring, fused or not:
SMILES	Mtb growth	Mtb betalactam	YopH PTP inh	RecA intein inh	Arbovirus inh	others
CC1=C(C(=O)Nc2cc(C)ccc2C)C(c2cccs2)NC(=S)N1 (stereo not drawn)	-2%	-5	-52	-0.2	8
S=c1nccc(-c2cccs2)[nH]1	1%	45	·	·	-1
CCOC(=O)c1c(NC(=O)CSc2nnc(CNC(=O)c3ccco3)n2C)sc2c1CCC2	-8%	25	-49	4.6	-1
Cc1cc(/C=N/NC(=O)c2cccs2)c(C)n1-c1ccccc1	-8%	7	-20	1.7	-3

Other results follow.
SMILES	Mtb growth	Mtb betalactam	YopH PTP inh	RecA intein inh	Arbovirus inh	others
COCCNc1nnnc2c1sc1nc(N3CCOCC3)c3c(c12)CC(C)(C)OC3	2%	-3	·	-0.2	-4
O=C(O)c1ccc2c(=O)n(-c3ccc(F)c(Cl)c3)c(=S)[nH]c2c1	1%	4	·	-1.9	·
OCCC1CN(Cc2cccn2-c2ncccn2)CCN1Cc1ccc(F)cc1 (stereo not drawn)	12%	-7	·	-1.0	·
CC(=O)Nc1ccc(S(=O)(=O)NCC(=O)OCC(=O)NC23CC4CC(CC(C4)C2)C3)cc1	3%	2	-3	-18	1
COc1ccccc1C(=O)Nc1ccnn1C1CCN(C2CCSCC2)CC1	·	0	·	1.0	·
Cc1cc(C#N)c(C)n1-c1cc(S(=O)(=O)N2CCOCC2)ccc1N1CCCC1	-7%	14	-24	·	-7
CCCc1ccc(-c2c(C)sc(N)c2C#N)cc1	18%	-1	5	4.1	-39
Cc1c(C(c2ccccc2Cl)c2c(O)c3ccccc3oc2=O)c(=O)n(-c2ccccc2)n1C (stereo not drawn)	-8%	-7	-31	-1.9	8
COC(=O)NCCOc1nc(N(C)C)nc(N(C)C)n1	7%	6	-37	-1.3	2
Nc1c(C(=O)NCCCc2ccccc2)c2nc3ccccc3nc2n1Cc1cccs1	1%	-10	-22	32*	-29
O=C(NCCCN1CCOCC1)c1ccc(Sc2cccc(Cl)c2)c([N+](=O)[O-])c1	1%	-1	-19	1.3	-23
CCc1cc(C(=O)c2ccc(Br)cc2)c(NC(=O)CN(CC)CC)s1	·	8	·	5.1	·
CCCCn1c(SCC(=O)N2CCC(C)CC2)nc2ccsc2c1=O	8%	-4	24	4.6	13
Cc1onc(-c2c(F)cccc2Cl)c1C(=O)ONC(=O)c1ccccc1	-3%	3	·	-5.4	·
CS(=O)(=O)N1N=C(c2ccco2)CC1c1ccccc1 (stereo not drawn)	-2%	-2	-23	-3.8	-12
O=C(O)C1C2C=CC3(CN(Cc4ccncc4)C(=O)C13)O2 (stereo not drawn)	-7%	-6	-20	-2.4	-1
COc1cccc(OCCNc2cc(N3CCCCC3)ccc2[N+](=O)[O-])c1	4%	1	3	4.1	0
COCCn1c(SCC(=O)Nc2ccccc2)nnc1-c1ccoc1C	·	1	·	-0.7	·
O=C(O)c1ccc(Cl)cc1NC(=O)C1CCCO1 (stereo not drawn)	-7%	1	35	-3.1	3
COc1ccc(OC)c2[nH]c(=O)c(CCNC(=O)COc3ccccc3)cc12	·	-4	-24	1.0	3

Entries from the list above containing a cyano group, in the order listed:
SMILES	Mtb growth	Mtb betalactam	YopH PTP inh	RecA intein inh	Arbovirus inh	others
Cc1nsc(Nc2ccc([N+](=O)[O-])cc2)c1C#N	-4%	-2	·	-1.2	-6
Cc1cc(C#N)c(C)n1-c1cc(S(=O)(=O)N2CCOCC2)ccc1N1CCCC1	-7%	14	-24	·	-7
CCCc1ccc(-c2c(C)sc(N)c2C#N)cc1	18%	-1	5	4.1	-39

Additional compounds:
SMILES	Mtb growth	Mtb betalactam	YopH PTP inh	RecA intein inh	Arbovirus inh	others
COc1ccccc1NC(=O)C/C(C)=N/NC(=O)COc1c(Br)cc(Br)cc1OC	-3%	-4	·	12	-10
COc1ccc(-c2nc(-c3ccccc3)no2)c(OC)c1	1%	85	-13	1.9	1
Cc1nc(/C(N)=N/OC(=O)c2c(-c3ccccc3Cl)noc2C)cs1	3%	-10	·	0.1	·
COc1ccc(-c2cc(C(F)(F)F)nc(SCCC(=O)NCc3ccco3)n2)cc1	-5%	1	-75	3.0	1
CCN(CC(=O)Nc1ccc(OC)cc1)C(=O)c1oc2c(Cl)cccc2c1C	·	-8	·	-0.4	·
COc1ccc(C2COC(=O)C2=N)c(NC(=O)c2ccccc2)c1 (stereo not drawn)	7%	-9	-29	-0.6	1
COc1ccc(OC)c(NC(=O)CSc2nnc(Cn3nnc4ccccc43)n2C)c1	0%	2	16	2.8	9
O=S(=O)(NC(=S)NC1CCCCC1)c1ccc(Cl)cc1	-1%	0	·	-5.3	7
O=C(CSc1n[nH]c(-c2ccccc2)n1)Nc1ncccn1	-11%	-10	·	-3.9	-4
COc1cnc(-c2ccccn2)nc1Sc1cccc(Cl)c1	?	83	-28	2.0	-21
CC(C)(C)C(=O)Nc1ccc(-c2cn3cccnc3n2)cc1	·	5	·	-5.0	·
CCc1nccn1S(=O)(=O)c1cccc([N+](=O)[O-])c1	9%	5	-21	-1.4	-7
Cc1nn(C)c(Oc2cccc(Cl)c2)c1C(=O)O	-4%	-4	-43	-0.6	2
CCCCN1CC(C(=O)NC2CCCCC2)CC1=O (stereo not drawn)	-1%	-7	-58	3.6	0
C/C(=N/NC(=O)CNC(=O)c1cccnc1)c1ccccc1	·	-7	·	1.3	·
COc1ccc(/C=C(\C#N)C(=O)N=CN(C)C)cc1	6%	-3	·	1.7	9
COc1ccc(S(=O)(=O)N(C)CC(=O)NC2CCCCC2)cc1OC	1%	-5	-19	-2.3	5
O=C(COc1ccc(Cl)cc1Cl)NCCC1=CCCCC1	0%	72	2	13	-31
O=C(COc1ccc(Cl)cc1Cl)NN1C(=O)C2C3C=CC(C3)C2C1=O (stereo not drawn)	-1%	-9	·	0.6	·
O=C(CC1SC(=Nc2cccc3ccccc23)N(Cc2ccccn2)C1=O)Nc1ccccc1Br (stereo not drawn)	-4%	1	-3	-1.4	-2
CCOC(=O)CSc1nc(C)c2ccccc2n1	-9%	0	-7	-2.6	2
CCOc1cc(/C=C(\C#N)C(N)=O)ccc1OCc1c(C)no[n+]1[O-]	2%	2	·	3.4	3
COC(=O)c1ccc(CS(=O)(=O)c2ccccc2C)o1	1%	1	-5	·	11
CC(C)c1ccc(/C=C/C(=O)CCC(=O)O)cc1	-9%	2	·	1.4	16
CCOC(=O)CNC(=O)C(NC(=O)C1CCC(C)CC1)C(C)CC (stereo not drawn)	10%	95	1	-1.4	1	Arbovirus inh repeat=-1
O=C(NCCC1CCCCN1S(=O)(=O)c1ccccc1)C(=O)NCc1ccc(F)cc1 (stereo not drawn)	·	1	·	-0.4	·
COc1ccc(Br)cc1CNC(=O)C1CCN(c2nnc(N3CCCC3=O)s2)CC1	·	-2	·	-38	·
COc1ccc2c(c1)sc1nc(=O)ccn12	·	3	·	2.2	·
Cc1nn(-c2ccccc2)c(Cl)c1/C=N/NC(=O)c1cccc(S(=O)(=O)N2CCCC2)c1	1%	3	-36	-2.3	-3
O=c1oc2ccccc2cc1-c1nnc(-c2cccc(Br)c2)o1	49%	98	·	·	·
C=CCN(C(=O)COc1ccccc1)c1nnc(-c2ccncc2)s1	1%	-10	-7	1.0	-3
O=C(O)c1ccccc1NC(=O)C1CCCO1 (stereo not drawn)	-1%	6	-17	0.4	8
CC1CCCCN1C(=O)c1c(Cl)cnn1C (stereo not drawn)	·	-3	·	-1.1	·
